CSC inhib – blocks cancer stem cells | cancer stem cell-like cells viability, luminescence | inhibition, % at 7.5 µM | 300,000 compounds, 1.1% hits | AID 2717;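 active = mean at 75% or more and at least half the replicates too; inconclusive = mean and replicates disagree; tested in HMLE shEcad cells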;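 also: 0% = median of negative and 100% = median of positive control wells; the first replicate is given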
PABP FP inh – blocks human PABP binding to poly(A) RNA. P11940. 290,000 compounds, 1% hits. fluorescence polarization. inhibition, % at 35 µM. AID 2014;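 active = 50% or more with normal probe brightness, or confirmed in later tests; inconclusive = above 50% with abnormal brightness, or retests that disagree; inactive = below 50% or failed in later tests; about a fifth of its hits are not listed in these tables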;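 also: calls also rest on retests at 20 µM and on dose response follow-up; controls were probe without protein and protein plus probe with vehicle; some compounds called inactive have numbers as strong as hits; many hits fall short of the cut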
Target sequence (P11940 whole entry, looked up): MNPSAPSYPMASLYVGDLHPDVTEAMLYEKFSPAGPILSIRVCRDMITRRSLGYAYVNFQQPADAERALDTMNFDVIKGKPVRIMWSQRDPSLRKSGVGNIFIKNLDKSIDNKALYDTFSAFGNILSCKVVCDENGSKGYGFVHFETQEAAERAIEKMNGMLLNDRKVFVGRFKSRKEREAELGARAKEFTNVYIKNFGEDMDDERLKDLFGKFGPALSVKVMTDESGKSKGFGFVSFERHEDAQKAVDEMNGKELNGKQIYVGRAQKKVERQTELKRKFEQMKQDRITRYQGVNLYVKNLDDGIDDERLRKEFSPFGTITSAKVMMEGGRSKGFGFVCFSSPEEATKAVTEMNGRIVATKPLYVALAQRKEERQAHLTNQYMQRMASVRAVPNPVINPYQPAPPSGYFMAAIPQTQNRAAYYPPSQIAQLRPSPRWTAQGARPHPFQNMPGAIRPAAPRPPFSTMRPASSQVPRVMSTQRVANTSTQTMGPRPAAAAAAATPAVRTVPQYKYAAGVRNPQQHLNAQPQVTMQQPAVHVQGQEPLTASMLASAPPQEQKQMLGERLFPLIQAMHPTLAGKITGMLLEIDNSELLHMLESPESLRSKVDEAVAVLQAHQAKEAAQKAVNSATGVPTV
HIV Env fusion – inhibitors of HIV Env-mediated cell fusion | inhibition, % at 12.3 µM | AID 651610 | HeLa-JRFL Env/CEM21 cell fusion, luciferase | 360,000 compounds, 1.1% hits;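 active = mean replicate inhibition score of at least 50 and every replicate individually at or above 50; inconclusive = only one of the two criteria met; inactive = mean below 50 and not all replicates reaching 50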;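 also: 0% = plate neutral controls and 100% = maraviroc near 300 nM; one replicate is shown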
Rce1 inh – inhibitors of yeast Ras-converting enzyme; AID 2563; calls only; yeast membranes, quenched prenylated peptide cleavage fluorescence; 290,000 compounds, 0.27% hits;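 active = fall in fluorescence gain of 50% or more versus controls, with final raw signal at or below 3038400; inconclusive = same 50% fall but final raw signal above 3038400; inactive = fall in fluorescence gain under 50%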;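 also: plate controls were neutral control wells for no effect and wells lacking membranes for full effect; tested at 10 µM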
MT1-MMP act inh – inhibitors of human MT1-MMP activation; P50281; GFP/RFP ratio change, % at 20 µM; 360,000 compounds, 0.061% hits; HT1080 RFP-PRO-GFP cells, GFP/RFP ratio fluorescence, overnight; percent of plate control window, DMSO zero;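 active = GFP/RFP ratio change of at least 30% with cell ATP level not reduced by more than half and red fluorescence within 50% of control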; also: strong numbers were not always called active
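Test system: HT1080 cells expressing an RFP-PRO-GFP fluorescent reporter construct / Compound dosing: single-point 20 µM compound, 1% DMSO / Schedule: cells overnight before dosing, compound overnight, 37 °C, 5% CO2 / Evaluation: GFP/RFP fluorescence ratio / Control set: DMSO and RFP-L50D-GFP cell wells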
eIF4H inh – inhibitors of RNA binding by human eIF4H | eIF4H fluorescence polarization binding assay | inhibition, % at 35 µM | 290,000 compounds, 0.94% hits | Q15056;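 active = 50% or more with normal probe brightness, or confirmed in later tests; inconclusive = above 50% with abnormal brightness, or retests that disagree; inactive = below 50% or failed in later tests; about a fifth of its hits are not listed in these tables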;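 also: calls also rest on retests at 20 µM and on dose response follow-up; 0% = protein and probe with vehicle and 100% = probe without protein; strong numbers were not always called active; many hits fall short of the cut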
UUG fidelity – alters start codon recognition fidelity in yeast; S. cerevisiae UUG-firefly luciferase reporter, luminescence/redox ratio; activity score, % at 18.7 µM; 350,000 compounds, 0.13% hits; AID 602363;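 active = replicate mean at a twofold rise or more, about +100% in these data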;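 also: firefly luciferase made from a UUG start codon reports start codon fidelity; reporter light over untreated wells divided by growth signal over untreated wells; some hits fall short of that in this replicate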
eIF4H inh retest – also measured in eIF4H inh; calls as there; inhibition, %; compound at 20 µM; confirmation average;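 mean of two retest wells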
PABP FP inh retest – further read-out of PABP FP inh, marked with its call; inhibition, %; compound at 20 µM; confirmation repeats;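 mean of two retest wells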
MT1-MMP act inh RFP – further read-out of MT1-MMP act inh, marked with its call; RFP signal change, %; measured here: RFP expression control read;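 0 = vehicle wells; hits needed this value within 50% of zero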
* marks the source's active call; other numbers are inactive results; i = inactive; ? = inconclusive; . = no result given. The list is partial; count on the stated rates, not on these rows.

SMILES	CSC inhib	PABP FP inh	HIV Env fusion	Rce1 inh	MT1-MMP act inh	MT1-MMP act inh RFP	eIF4H inh	UUG fidelity	others
N#Cc1cc2ccccc2nc1SCC(=O)Nc1ccccc1N1CCOCC1	27	10	28	i	-80	-7	18	-15
O=C(NNC(=O)c1ccc2c(=O)n3c(nc2c1)CCC3)c1ccc(Cl)cc1	1	.	.	.	-2	-5	.	-19
CCOC(=O)C1CCCN(CC(=O)Nc2c(C(=O)OC)[nH]c3ccccc23)C1 (configuration not stated)	-12	-4	-115	i	-1	-1	-1	-17
CCOCCCn1c(C)nc2c[n+](CC(=O)c3ccc4ccccc4c3)cc(Br)c21	4	21	-3	i	1	-8	22	2
O=[N+]([O-])c1ccc(Cl)c(C2Nc3cccc4cccc(c34)N2)c1	17	60*	58*	i	0	7	97*	-9	eIF4H inh retest=96*;PABP FP inh retest=102*
CC(=O)NS(=O)(=O)c1ccc(N=c2ssc3c2-c2ccc(C)cc2NC3(C)C)cc1	44	-2	-29	i	1	-2	10	.
O=S1(=O)CC(N2CCOCC2)c2ccccc21 (configuration not stated)	-1	11	.	i	0	0	4	-14
Cc1cc(C(=O)N/N=C/c2cccs2)n[nH]1	-10	12	8	i	4	5	-4	-15
CN=Cc1nc(-c2ccccc2)oc1O	2	-7	.	i	0	1	-2	-15
COc1cc(C(=O)NCC(c2cccnc2)N2CCN(C)CC2)cc(OC)c1OC (configuration not stated)	9	3	17	i	-2	1	3	-12
COc1ccc(NC(=O)C(C)(C)Oc2ccc(Cl)cc2)cn1	0	.	.	.	5	1	.	-16
O=C(Cn1cc(C(F)(F)F)ccc1=O)N/N=C/c1ccc(F)cc1	7	14	-8	i	1	4	4	.
Cc1ccc2c(c1)oc(=O)n2CC(=O)c1ccccc1	-8	-1	-9	i	1	-2	6	.
Cc1ccc(COC(=O)Cc2coc3cc(O)ccc23)cc1	-2	19	-7	i	3	-1	1	-17
CN(CCc1cn[nH]c1)Cc1nc(Cc2ccccc2)no1	-13	3	2	i	-3	2	-15	-15
CCC(=O)C1CCCN(C(=O)c2cccc(OC3CCN(S(C)(=O)=O)CC3)c2)C1 (configuration not stated)	-2	-1	.	i	-1	-2	2	24
Cc1ccc(/C=C/c2onc(C)c2S(=O)(=O)N2CCC(C(=O)N3CCCCC3)CC2)cc1	29	2	-8	i	-13	-13	-10	-10
COc1ccc(S(=O)(=O)N2CCCN(S(=O)(=O)c3ccc(OC)cc3C)CC2)c(C)c1	16	-3	.	i	-8	-13	4	-15
Cc1cc(Sc2ccc([N+](=O)[O-])cn2)ccc1Br	25	.	5	i	-2	-6	.	.
O=C(CN1C(=O)/C(=C/c2cccc(Br)c2)SC1=S)N1CCCC1	49	-2	18	i	2	-3	-4	.
COc1cccc(-c2ncc3ccccn23)c1	1	-5	.	i	-2	4	4	-11
CNS(=O)(=O)c1cccc(C(=O)OCC(=O)c2ccc3c(c2)OCCO3)c1	.	.	?	.	1	-4	.	-76
O=C(Cc1ccccc1Cl)c1ccccc1	.	.	-4	.	-5	0	.	-9
CCN(Cc1ccccc1)S(=O)(=O)c1cc(C(=O)OC)n(C)c1	.	-7	-4	i	0	1	3	7
NC(=O)C1CCN(C(=O)CSc2nc3ccccc3[nH]2)CC1	3	3	.	i	-1	5	6	-14
CC(C)(C)S(=O)N1Cc2ccc(CO)cc2[C@@H]1CCO (some centres not stated)	.	.	-22	.	2	9	.	-24
COC(=O)c1ccc(CNC(=O)c2ccc3c(c2)OCCO3)cc1	0	-3	-2	i	1	3	1	.
O=C(CSc1nnnn1-c1cccc(O)c1)NC1CC1	-10	0	-7	i	-4	1	-14	-17
Cc1ccc(C(=O)c2ccccc2C(=O)O)s1	-1	-11	-67	i	-4	4	-11	-20
CCOC(=O)C1CCCN(CCC(=O)Nc2ccc(Br)c(C)c2)C1 (configuration not stated)	-7	-3	3	i	1	1	-3	-7
O=C(NCC1CCCO1)c1ccccc1NC(=O)c1cccc2ccccc12 (configuration not stated)	-9	-1	7	i	-2	1	2	-7
Cc1cc(=O)oc2cc3oc(=O)cc(C)c3cc12	-12	-6	-10	i	-13	-1	-1	-10
CN(C)c1cccc(CNC(=O)c2csc([C@H]3C[C@H](O)[C@@H](CO)O3)n2)c1	.	.	-43	.	-2	4	.	-13
CCOc1ccc(NC(=O)CN(C)C(=O)c2cccc3ccccc23)cc1OCC	.	.	2	.	-1	0	.	12
CCN(CC)CCNc1nc2c(c(=O)[nH]c(=O)n2C)n1CCCc1ccccc1	-16	-15	14	i	-1	0	-5	-13
CC(C)=C(NC(=O)c1ccccc1)C(=O)N/N=C(\C)c1ccccc1O	.	1	.	i	4	7	-4	-8
COc1ccc(OC)c(-c2nn(-c3ccccc3)cc2C(=O)NCC(c2cccs2)N2CCOCC2)c1 (configuration not stated)	-12	.	13	i	-2	-3	.	.
CN1CCC(OC(=O)c2ccc(Br)cc2)CC1	54	.	-6	.	-2	6	.	-16
COc1ccc(C(=O)n2c(N)nc3ccccc32)cc1OC	-7	11	-44	i	7	0	4	-7
COc1ccccc1C(=O)N/N=C1/NC(=O)CC(C(=O)Nc2ccccc2)S1 (configuration not stated)	-6	3	4	i	1	3	5	.
COc1ccc(C)cc1NC(=O)C1CCN(C(=O)Cc2ccccc2)CC1	5	1	7	i	11	0	3	.
CC(=O)NC1C(=O)N=C(SCC(=O)Nc2sc3c(c2C#N)CCCCCC3)NC1=O (configuration not stated)	-25	-5	9	i	-3	-2	-3	.
COC(=O)[C@H]1C[C@@H]1[C@H](NC(=O)c1cc(C)on1)c1ccccc1	5	-10	-21	i	1	2	-3	-14
CCOC(=O)CC(=O)CSc1nc2c(sc(=S)n2-c2ccc(C)c(C)c2)c(=O)[nH]1	.	2	4	i	7	-4	10	-36
O=C(NCc1cccc(C(F)(F)F)c1)c1ccc2nc([C@@H]3O[C@H](CO)[C@@H](O)[C@H]3O)[nH]c2c1	.	.	12	.	4	7	.	-12
CC1CC1C(=O)OCC(=O)NCc1ccc(Cl)cc1Cl (configuration not stated)	-3	3	0	i	5	4	-7	-13
Cn1cnnc1SCc1ccc(F)c2ccccc12	-10	-15	5	i	3	1	-12	-22
Cc1cc(=O)[nH]c2c1c(C)nn2C1CCCC1	1	6	-8	.	-2	-1	-7	14
COc1ccc(NC(=O)/C(=C\c2ccc(OS(=O)(=O)c3ccc(C)cc3)cc2)NC(=O)c2ccccc2)cc1	-3	5	.	i	3	-1	0	-25
CN1CCc2nc(NC(=O)c3cccc(S(=O)(=O)N4CCc5ccccc54)c3)sc2C1	-7	16	.	.	-10	0	11	-13
O=C1C=C(NCCc2ccccc2)C2(CCCCC2)O1	-11	7	11	i	-1	-3	-6	.
CCN(CC(=O)Nc1ccc(NC(C)=O)cc1)C(=O)c1ccc(N2CCC(C)CC2)c([N+](=O)[O-])c1	-2	.	.	.	8	0	.	-3
O=S(=O)(c1ccc(S(=O)(=O)N(Cc2ccco2)Cc2ccccc2Cl)cc1)N1CCCC1	-5	14	.	i	1	-4	-3	-17
COC(=O)c1ccc(OCCCCN(C)Cc2ccccc2)cc1	.	21	7	i	0	3	7	-20
Cc1ccc(/C=C2\SC(N3CCCC3)=NC2=O)cc1	-6	-7	-17	i	.	.	-11	.
NS(=O)(=O)c1cccc(NC(=O)CSc2nc3nc(-c4cccs4)cc(C(F)(F)F)c3c(=O)[nH]2)c1	-4	24	-11	i	-1	2	2	-10
CC(C)CCOP(=O)(c1ccc(N(C)C)cc1)C(O)c1ccccn1 (configuration not stated)	-41	-8	-28	i	1	6	-5	11
O=C(c1ccccn1)N1CCCC(N2CCN(c3ccccc3)CC2)C1 (configuration not stated)	-12	10	7	i	0	4	-2	-12
COCc1cc(=O)[nH]c2cc(NC(=O)C(F)(F)F)c(C)cc12	-21	-6	8	i	0	3	2	-7
O=C(COc1ccccc1)NCc1ccccc1	.	-5	15	i	5	1	-2	-4

Later entries
SMILES	CSC inhib	PABP FP inh	HIV Env fusion	Rce1 inh	MT1-MMP act inh	MT1-MMP act inh RFP	eIF4H inh	UUG fidelity	others
CN(Cc1ccccc1)C(=O)C1CCN(S(=O)(=O)c2cccc3nonc23)CC1	-15	15	6	i	-6	-2	4	3
O=C(CS(=O)(=O)Cc1ccccc1)Nc1nnc(C2CCCCC2)s1	-11	-3	-35	i	12	-1	5	6
O=C(Nc1ccccc1)c1ccc[n+](Cc2ccc([N+](=O)[O-])cc2)c1	.	5	1	i	-1	6	-12	-16
CC(C)(CNC(=O)c1ccc(S(=O)(=O)Nc2ccccc2F)cc1)N1CCOCC1	.	.	-1	i	0	-1	.	10
CC(C)CN(C(=O)CSc1nnnn1-c1ccccc1)c1c(N)n(CC(C)C)c(=O)[nH]c1=O	-12	31	-5	i	-4	-3	21	.
CN1CCN(C(=O)c2cc(Cl)cc(Cl)c2)CC1	-13	-1	-22	i	-4	-1	0	-10
CCN(CC)C(=O)Oc1ccc2oc(=O)cc(-c3cc4cccc(OC)c4o3)c2c1	0	-13	-15	i	-1	-3	-10	-9
Cc1occc1-c1nnc(SCC(N)=O)o1	-6	-9	10	i	2	2	5	-5
COc1cc(C(O)c2nc(-c3cccs3)cs2)ccc1F (configuration not stated)	.	.	7	.	2	-9	.	2
CCC(C)(O)C(=O)N[C@H]1CCCN1C(=O)/C=C/c1ccccc1 (some centres not stated)	15	.	-22	.	-2	2	.	-4

Filtered by structure, the entries above with an NH in an aromatic ring.
SMILES	CSC inhib	PABP FP inh	HIV Env fusion	Rce1 inh	MT1-MMP act inh	MT1-MMP act inh RFP	eIF4H inh	UUG fidelity	others
CCOC(=O)C1CCCN(CC(=O)Nc2c(C(=O)OC)[nH]c3ccccc23)C1 (configuration not stated)	-12	-4	-115	i	-1	-1	-1	-17
Cc1cc(C(=O)N/N=C/c2cccs2)n[nH]1	-10	12	8	i	4	5	-4	-15
CN(CCc1cn[nH]c1)Cc1nc(Cc2ccccc2)no1	-13	3	2	i	-3	2	-15	-15
NC(=O)C1CCN(C(=O)CSc2nc3ccccc3[nH]2)CC1	3	3	.	i	-1	5	6	-14
CCN(CC)CCNc1nc2c(c(=O)[nH]c(=O)n2C)n1CCCc1ccccc1	-16	-15	14	i	-1	0	-5	-13
CCOC(=O)CC(=O)CSc1nc2c(sc(=S)n2-c2ccc(C)c(C)c2)c(=O)[nH]1	.	2	4	i	7	-4	10	-36
O=C(NCc1cccc(C(F)(F)F)c1)c1ccc2nc([C@@H]3O[C@H](CO)[C@@H](O)[C@H]3O)[nH]c2c1	.	.	12	.	4	7	.	-12
Cc1cc(=O)[nH]c2c1c(C)nn2C1CCCC1	1	6	-8	.	-2	-1	-7	14
NS(=O)(=O)c1cccc(NC(=O)CSc2nc3nc(-c4cccs4)cc(C(F)(F)F)c3c(=O)[nH]2)c1	-4	24	-11	i	-1	2	2	-10
COCc1cc(=O)[nH]c2cc(NC(=O)C(F)(F)F)c(C)cc12	-21	-6	8	i	0	3	2	-7
CC(C)CN(C(=O)CSc1nnnn1-c1ccccc1)c1c(N)n(CC(C)C)c(=O)[nH]c1=O	-12	31	-5	i	-4	-3	21	.
